Screening results deposited in PubChem BioAssay by National Center for Advancing Translational Sciences (NCATS).
Rango dissoc inh: prevents RanGTP from dissociating the Rango-importin beta complex; O95149+P62826; AID 540253; Biochemical FRET Rango-importin beta, RanGTP-induced dissociation; Potency, µM (titrated, usually from 46.1 µM), without a hit: at the highest dose activity change, negative = inhibition; actives 0.071% (n = 340,000); active means falling FRET ratio curve, often poorly fitted, with flat reads before Ran was added; inconclusive means other falling curves, or compound fluorescence or quenching; inactive means flat or rising ratio curve;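 also: potency is read from the fitted curve at half-maximal effect; % of control where 0% means no effect; nearly all actives have a fitted effect of over 45% in size; -100% = wells without RanGTP and RCC1; the record marks most hits as doubtful in a second field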
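Compounds preincubate 5 min with complex of recombinant Rango and importin beta in PBS with 1 mM DTT. Ran (0.6 uM) loaded with 2 mM GTP plus 0.2 uM RCC1 starts dissociation; FRET is recorded 45 min later.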
miR-21 FLuc: miR-21 reporter, rising signal. 340,000 tested, under 10 active. HeLa miR-21 FLuc reporter, luciferase, 48 h. Potency, µM (titrated, usually from 38.3 µM), for inactives: at the top dose reporter change, positive = more light; active = well fitted rising curve with a large enough effect; inconclusive = small, poorly fitted or top-dose-only effect; inactive = no such curve, though single readings can be large or run the other way;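 also: % of control where 0% means no effect; miR-21 action dims this reporter so a rising signal means less miR-21 action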
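HeLa cells endogenously expressing miR-21, stably carrying CMV-driven firefly luciferase with a downstream miR-21 binding site, 2000 cells/well. Titrations up to approximately 40 uM, 48 hours; luciferase luminescence read.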
Rango-impB inh: Rango-importin beta binding inhibition | actives 0.031% (n = 340,000) | Rango CFP/YFP FRET sensor + importin beta, 45 min | Q14974 | Potency, µM (highest dose often 92.2 µM), without a hit: top-dose inhibition of complex formation; active = rising FRET ratio curve, often small or poorly fitted; inconclusive = mostly compound fluorescence or quenching in the first reads; inactive = flat curves in all reads;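 also: potency is read from the fitted curve at half-maximal effect; 0% = DMSO wells and 100% = buffer wells lacking importin beta; nearly all actives have a fitted effect of over 15% in size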
Target sequence (Q14974 whole entry, looked up): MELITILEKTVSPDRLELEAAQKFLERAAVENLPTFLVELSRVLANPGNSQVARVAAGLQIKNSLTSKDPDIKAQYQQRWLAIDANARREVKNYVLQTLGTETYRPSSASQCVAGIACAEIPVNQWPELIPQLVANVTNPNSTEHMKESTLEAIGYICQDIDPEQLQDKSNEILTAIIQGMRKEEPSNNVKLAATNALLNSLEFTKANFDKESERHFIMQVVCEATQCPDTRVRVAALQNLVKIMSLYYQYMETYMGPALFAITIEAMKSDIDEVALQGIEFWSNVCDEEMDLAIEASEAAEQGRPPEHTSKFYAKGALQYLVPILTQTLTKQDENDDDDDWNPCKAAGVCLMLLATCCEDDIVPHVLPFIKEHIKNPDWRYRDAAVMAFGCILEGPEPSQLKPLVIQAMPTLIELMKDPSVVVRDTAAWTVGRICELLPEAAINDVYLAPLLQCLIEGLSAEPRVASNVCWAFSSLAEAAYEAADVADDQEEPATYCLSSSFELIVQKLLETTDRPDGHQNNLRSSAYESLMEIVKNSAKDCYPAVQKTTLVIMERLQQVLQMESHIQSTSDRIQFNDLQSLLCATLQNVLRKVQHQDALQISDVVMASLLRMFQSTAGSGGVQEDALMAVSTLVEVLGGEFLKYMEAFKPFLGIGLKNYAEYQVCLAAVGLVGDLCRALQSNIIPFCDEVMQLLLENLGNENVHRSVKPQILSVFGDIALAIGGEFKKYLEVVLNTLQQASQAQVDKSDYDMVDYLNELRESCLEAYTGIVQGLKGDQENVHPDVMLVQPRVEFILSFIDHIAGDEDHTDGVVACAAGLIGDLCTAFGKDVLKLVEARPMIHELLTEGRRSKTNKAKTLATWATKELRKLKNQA
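FRET biosensor (snurportin 1 IBB flanked by EYFP and cerulean), 50 nM, with compound 5 min, then 0.125 microM importin beta in PBS, 1 mM DTT, 0.02% Tween-20, 0.1% BSA. CFP/YFP ratio read after 45 min at room temperature; pre-read flags interference.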
GLA inh pH 4.5: blocks human alpha-galactosidase A at pH 4.5 | P06280 | purified enzyme, 4-MU-alpha-Gal fluorescence, pH 4.5 | activity change, negative = inhibition, % at 105 µM | 230,000 tested, under 10 active; inconclusive = small, poorly fitted or top-dose-only inhibition, or a rising curve; inactive = flat fitted curve, though single readings scatter; no compound was filed as active;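 also: 0% = full activity with enzyme and -100% = basal without enzyme; dose as in the result columns while the protocol names 77 µM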
* hit, by the source's call; u = inconclusive; x = no result given; & = joins results of further samples. Only part of the results is shown; count on the stated rates, not on these rows.

#	SMILES	Rango dissoc inh	miR-21 FLuc	Rango-impB inh	GLA inh pH 4.5
1	CC1=NS(=O)(=O)c2cc(Cl)ccc2N1	-5%	2%	-1.8%	-2&-3&-11&7
2	CN1CCC(N(C)C(=O)/C(C#N)=C/c2ccccc2)CC1	-2%	0%	0.2%	x
3	CCOC(=O)C1CCN(CC(=O)Nc2cc(S(=O)(=O)N3CCCCC3)ccc2Cl)CC1	-1%	x	u	x
4	COc1ccc(NC(=O)N2CCCCCC2)cc1OC	-1%	-9%	4.8%	x
5	O=c1cc(NCc2ccco2)c2ccccc2o1	-1%	-11%	-1.2%	0
6	Cc1nnc(NC(=O)c2ccccc2-c2ccccc2C(=O)O)s1	6%	0%	3.5%	-3
7	CCCCCN(C(=O)CCC(=O)OCC(=O)NC1CCC(C)CC1)c1c(N)n(CCCC)c(=O)[nH]c1=O (stereo not drawn)	8%	x	-1.8%	x
8	CCc1nn2c(=O)c(S(=O)(=O)Nc3ccc(Cl)cc3)c(C)nc2s1	0%	6%&6%	-2.3%	x
9	Nc1nc(SCC(=O)NC2CCCc3ccccc32)n[nH]1 (stereo not drawn)	-6%	-2%	-0.8%	8
10	O=C(c1ccc(COc2ccccc2[N+](=O)[O-])o1)N1CCCCCC1	-16%	-39%	-1.3%	0
11	Cn1nc(C(F)(F)F)c(C(=O)Nc2cccc(Cl)c2)c1Cl	-3%	-3%	0.0%	-6
12	COC(=O)CN=C1OC(=O)N2C(=O)C3=C4[C@@H](C[C@H]5C(=O)N(c6ccccc6)C(=O)[C@H]5[C@H]4[C@@]12Cc1ccccc1)[C@H]1C(=O)N(c2ccccc2)C(=O)[C@H]1[C@H]3C	1%	1%	u	-4
13	C=CCn1c(O)c(C(CC)=NCc2cccnc2)c(=O)[nH]c1=O	-4%	1%	4.4%	11
14	CCOC(=O)COc1ccc2c(=O)c(-c3ccccc3)coc2c1	-20%	4%	-0.3%	3
15	O=C(/C=C/c1cccc(Cl)c1)NCCCN1CCOCC1	-5%	-11%	1.7%	x
16	Cc1ccc2c(c1)c(CC(=O)Nc1ccc(F)cc1)c(C(=O)O)n2C	2%	-1%	0.6%	5
17	CCN1CCN(C(=O)CCc2nnc(CCc3c[nH]c4ccccc34)o2)[C@@H](C)C1=O	-11%	-1%	-2.0%	x
18	Cn1cnc([N+](=O)[O-])c1Sc1ncccc1N	-1%	0%	-0.6%	5
19	CS(=O)(=O)N1CCCC(C(=O)N2CCN(c3cccc(Cl)c3)CC2)C1 (stereo not drawn)	2%	3%	1.5%	1
20	S=C1NCCOCCOCCOCCOCCNC(=S)N2CCOCCOCCN1CCOCC2	2%	-3%	6.5%	7
21	NC(=O)COc1ccc2c3c(c(=O)oc2c1)CCCCC3	-5%	-27%	-3.3%	4
22	Cc1c(C2CC(=O)N(c3ccccc3)C2=O)[nH]n(-c2ccccc2)c1=O (stereo not drawn)	-10%	0%	u	-5
23	CCC(C)c1ccc(NC(=O)c2[nH]c(C)c(C(C)=O)c2C)cc1 (stereo not drawn)	-4%	-9%	0.4%	x
24	CC(c1nc2ccccc2n1Cc1ccccc1)N1CCCCC1 (stereo not drawn)	4%	10%	-3.9%	x
25	CN(C)C(=O)c1ccc(-n2cnc3ccccc3c2=O)cc1	-1%	-19%	3.2%	-19
26	CN(C)/C=N/c1cnc(C(=O)c2ccc(Cl)cc2)n1C	-13%	-37%	-1.2%	-3
27	CCOc1ccc(N(CC(=O)N2CCCC2)S(=O)(=O)c2ccc(Cl)cc2)cc1	-10%	0%	-0.6%	x
28	Cc1cc(/C=N\NC(=O)CC(=O)NC2CCCCC2)c(C)n1-c1ccc(Cl)cc1	-13%	-1%	-0.2%	5
29	CN(C)CCCNC(=O)C(=O)Nc1cc2c3c(c1)CCC(=O)N3CCC2	1%	3%	2.7%	x
30	O=C(CCc1nnc2n(Cc3ccc(F)cc3)c(=O)c3ccccc3n12)NCCN1CCOCC1	11%	7%	2.8%	x
31	COc1ccccc1NC(=O)c1nnn(Cc2ccccc2)c1NC(=O)C(F)(F)F	2%	-8%	-0.3%	-3
32	Cc1ccc(Cl)cc1N1CCN(C(=O)COc2ccc3c(c2)CCC3)CC1	1%	-8%	2.6%	-4
33	Cc1cc(C)n(-c2cc(N3CCN(S(=O)(=O)c4ccc(Cl)cc4)CC3)ccc2[N+](=O)[O-])n1	0%	7%	4.5%	-9
34	CC1Sc2ccc(S(=O)(=O)N3CCC(C(=O)NCc4ccc(Cl)cc4)CC3)cc2NC1=O (stereo not drawn)	-17%	26%	-0.6%	x
35	O=C(c1cccc(NS(=O)(=O)c2ccccc2)c1)N1CCN(c2ccccc2)CC1	13%	x	0.2%	x
36	CCN1CCc2nc(NC(=O)c3cc(F)c(F)cc3Cl)sc2C1	u	-24%	u	3
37	NC(=O)c1sc2nc3c(cc2c1N)CCCCCC3	u	-28%	u	-1
38	COC(=O)Cn1c(O)c(N=NC(=O)CNC(=O)COc2cccc(C)c2)c2ccccc21	-26%	2%	0.7%	x
39	CCc1noc(C)c1C(=O)NCCc1ccc(F)cc1	-6%	x	-0.1%	x
40	Cn1cc([N+](=O)[O-])c(C(=O)NNC(=O)c2ccc([N+](=O)[O-])cc2Cl)n1	0%	3%	-1.5%	-5
41	O=C(c1ccccc1)c1cccc2ccccc12	-5%	x	-0.4%	x
42	CCOC(=O)c1ccccc1NC(=O)Cn1cnc2c(oc3ccccc32)c1=O	-9%	-26%	7.3%	7
43	O=C(Nc1ncc2c(n1)-c1ccccc1OC2)c1ccc(Cl)cc1	-3%	0%	-0.6%	11
44	Cc1noc(C)c1C(=O)N1CCN(C(=O)c2sc3cc(Cl)ccc3c2Cl)CC1	1%	1%	-0.2%	1
45	O=C(CSc1nc2ncc(Cl)cc2[nH]1)NCC(=O)Nc1ccc(F)c(F)c1F	2%	11%	-1.8%	0

5 of the compounds above, with values ahead of the structure.
item	Rango dissoc inh	miR-21 FLuc	Rango-impB inh	GLA inh pH 4.5	molecule
33	0%	7%	4.5%	-9	Cc1cc(C)n(-c2cc(N3CCN(S(=O)(=O)c4ccc(Cl)cc4)CC3)ccc2[N+](=O)[O-])n1
34	-17%	26%	-0.6%	x	CC1Sc2ccc(S(=O)(=O)N3CCC(C(=O)NCc4ccc(Cl)cc4)CC3)cc2NC1=O (stereo not drawn)
35	13%	x	0.2%	x	O=C(c1cccc(NS(=O)(=O)c2ccccc2)c1)N1CCN(c2ccccc2)CC1
36	u	-24%	u	3	CCN1CCc2nc(NC(=O)c3cc(F)c(F)cc3Cl)sc2C1
37	u	-28%	u	-1	NC(=O)c1sc2nc3c(cc2c1N)CCCCCC3

Next part
#	SMILES	Rango dissoc inh	miR-21 FLuc	Rango-impB inh	GLA inh pH 4.5
46	O=C(NNC(=O)C1CCN(Cc2cccc(F)c2)CC1)c1cccc(Cl)c1	-4%	0%	3.8%	-3
47	CCOc1ccc(S(=O)(=O)N2CCc3cc(OC)c(OC)cc3C2)cc1	0%	-13%	1.7%	4
48	COc1ccccc1C(=O)NNC(=O)c1ccccc1Br	-5%	-35%	3.4%	x
49	COc1ccc2cc3cc(C(=O)NCc4cccnc4)oc3nc2c1	0%	-13%	0.0%	u
50	COc1ccc2c(c1)cc1n2CCN=C1NN	-3%	-52%	4.6%	3
51	O=C(NCc1ccccc1)c1ccc(COCC(F)(F)F)o1	-5%	-7%	-1.0%	-1
52	Cc1ccc(Cn2nnnc2CN2CCC(O)(c3ccccc3F)CC2)cc1	6%	-2%	0.3%	-25
53	COC(=O)c1ccc(CNC(=O)CCNC(=O)c2ccco2)cc1	4%	x	5.2%	x
54	O=C(O)CNC(=S)N(Cc1ccc(F)cc1)C1CCCCC1	12%	-2%	1.1%	-18
55	O=C(COC(=O)c1ccc(Cl)cc1[N+](=O)[O-])NC(=O)c1ccccc1	0%	-1%	-0.4%	x
56	O=C(Nc1ccc(CN2CCOCC2)cc1)c1ccc(-c2cc(Cl)ccc2Cl)o1	-2%	2%	-0.4%	-2
57	CN1CCC(=O)N(CCSc2ccccc2)CC1	0%	-42%	-1.2%	x
58	Cc1ccc(S(=O)(=O)N2CCN(Cc3nc4sc5c(c4c(=O)[nH]3)CCCC5)CC2)cc1	0%	0%	-5.2%	0
59	CC1CCN(C(=O)C(C)c2ccc([N+](=O)[O-])cc2)CC1 (stereo not drawn)	18%	-6%	-3.2%	-2
60	CCC(=O)c1ccc(OCC(=O)Nc2ccc3c(c2)OCCO3)cc1	0%	x	2.8%	x
61	Cc1c(NC(=O)CCC(=O)N2CCCCC2)c(=O)n(-c2ccccc2)n1C	-6%	-2%	1.0%	-6
62	COc1ccc(Cl)cc1S(=O)(=O)N1CCC(O)(c2ccc(Cl)cc2)CC1	3%	-8%	0.6%	-26
63	CC(Oc1ccc(Cl)cc1Cl)C(=O)N(Cc1ccco1)C1CCS(=O)(=O)C1 (stereo not drawn)	2%	-5%	-3.2%	-7
64	COc1ccc(CNC(=O)C2CCN(S(=O)(=O)c3c(C)noc3/C=C/N(C)C)CC2)cc1	u	-1%	u	x
65	Cn1c(SCC(=O)Nc2ccc(N3CCOCC3)c(Cl)c2)nnc1C(O)c1ccccc1 (stereo not drawn)	-2%	-14%	-0.2%	6
66	CNC[C@@H](CC1CCCCC1)NC[C@H](CC(C)C)NCCc1cccc(C(F)(F)F)c1	21%	u	4.9%	x
67	Cn1c(=O)[nH]c(=O)c2c1nc(N1CCCCC1)n2CCCSc1nc2ccccc2s1	1%	-1%	0.2%	-4
68	COc1ccccc1C(=O)NC(C)C(c1cccs1)N1CCN(C)CC1 (stereo not drawn)	12%	2%	0.4%	3
69	Cc1cc(C)c(NC(=O)Cn2ncc3ccccc32)c(C)c1	3%	5%	2.7%	x
70	CCn1c(C)nc2cc(S(N)(=O)=O)ccc21	14%	-1%	-0.1%	5
71	C/C=C/C=C\C(=O)Nc1cccc(C2=NOC3(C2)C[C@H](C(N)=O)N(C(=O)/C=C/C)C3)c1 (stereo partly drawn)	3%	1%	-0.2%	-3
72	CNC(=O)c1nnn(Cc2ccccc2)c1NC(=O)C(F)(F)F	-10%	-3%	-2.4%	-10
73	CCOc1ccc(-n2c(-c3ccc(OC)cc3)c[n+]3c2CCCCC3)cc1	0%	u	-4.7%	4
74	O=C(O)CSc1ccc(Oc2ccc(SCC(=O)O)cc2)cc1	5%	-9%	0.1%	-18
75	COc1ccc(CCCc2n[nH]c(=S)o2)cc1	4%	0%	-0.1%	1
76	O=C(OCC(=O)N1CCc2ccccc21)[C@@H]1CCCN1S(=O)(=O)c1ccccc1F	8%	x	1.9%	x
77	COc1cc(/C=N/n2cnnc2)ccc1OCCOc1ccccc1	6%	-31%	u	2
78	OCCCCCN=c1cc(-c2ccccc2)oc2ccc(Cl)cc12	1%	0%	-0.7%	1
79	COc1cc(/C=N/NC(N)=O)ccc1OC(=O)c1ccco1	-18%	4%	3.7%	5
80	Cc1noc(C)c1S(=O)(=O)Nc1ccc2c(c1)C(=O)N([C@H](C)CO)C[C@H](C)[C@@H](CN(C)C(=O)Nc1ccc(C(F)(F)F)cc1)O2	-16%	x	-3.1%	x

An excerpt from above in order of the Rango dissoc inh value, low to high.
#	SMILES	Rango dissoc inh	miR-21 FLuc	Rango-impB inh	GLA inh pH 4.5
80	Cc1noc(C)c1S(=O)(=O)Nc1ccc2c(c1)C(=O)N([C@H](C)CO)C[C@H](C)[C@@H](CN(C)C(=O)Nc1ccc(C(F)(F)F)cc1)O2	-16%	x	-3.1%	x
78	OCCCCCN=c1cc(-c2ccccc2)oc2ccc(Cl)cc12	1%	0%	-0.7%	1
77	COc1cc(/C=N/n2cnnc2)ccc1OCCOc1ccccc1	6%	-31%	u	2
